Screening data as filed in PubChem.
MLL AF4-AF9 inh: inhibitors of AF4 peptide binding to AF9, primary screen, biochemical, AlphaScreen, biotin-AF4 peptide, FLAG-AF9, single point; 0.47% of 350,000 active; Protein AF-9 (Homo sapiens), P42568; inhibition, % at 10 µM;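 active means every replicate reaching a set inhibition limit, whatever the replicate mean, cut at about 25% in these data; inconclusive means mean inhibition reaches that limit but some replicates miss it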;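 further: 0% = plate neutral control median and 100% = total signal loss; the record names both 10 and 1 µM as test concentration; the first replicate is given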
Target sequence (P42568 whole entry, looked up): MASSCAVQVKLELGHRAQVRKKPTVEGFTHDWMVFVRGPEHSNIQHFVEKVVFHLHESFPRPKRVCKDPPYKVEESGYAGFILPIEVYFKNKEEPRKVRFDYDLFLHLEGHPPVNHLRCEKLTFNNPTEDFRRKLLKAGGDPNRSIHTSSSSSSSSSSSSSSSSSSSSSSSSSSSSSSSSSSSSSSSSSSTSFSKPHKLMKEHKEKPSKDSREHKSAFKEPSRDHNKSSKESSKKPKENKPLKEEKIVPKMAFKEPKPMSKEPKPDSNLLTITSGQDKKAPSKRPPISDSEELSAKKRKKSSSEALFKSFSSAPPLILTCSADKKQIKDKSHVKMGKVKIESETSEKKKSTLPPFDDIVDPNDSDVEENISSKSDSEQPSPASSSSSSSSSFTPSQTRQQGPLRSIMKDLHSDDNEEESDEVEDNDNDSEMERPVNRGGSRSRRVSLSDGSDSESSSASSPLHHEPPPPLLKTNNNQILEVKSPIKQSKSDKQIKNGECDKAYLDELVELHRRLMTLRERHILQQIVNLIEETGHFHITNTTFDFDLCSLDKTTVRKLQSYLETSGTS
Beta cell apopt: inhibitors of cytokine-induced beta cell apoptosis, primary screen, luminescence. INS-1E cytokine-induced death, ATP luminescence, 48 h; percent of positive-control rescue, neutral wells zero. protection from apoptosis, % (no concentration beside the values). 0.8% of 300,000 active. AID 435005, 2010;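 active means all replicates at 75% or more, or half of them and the mean; inconclusive means half reach 75% but not the mean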;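 further: 0% = cytokine-treated negative control wells and 100% = positive control rescue; higher means more ATP so stronger rescue from cytokine killing; wells of about 40 µL received 100 nL stock; the first replicate is given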
Ecoli rRNA inh: reduced GFP signal of wild-type E. coli, primary screen, bacterial rRNA inhibitor project, GFP/RFP fluorescence, OD600, single point; E. coli WT GFP vs humanized-ribosome RFP mutants, 24 h; hits give low values; DMSO median 0, no signal -100; GFP signal change (wild-type ribosome), % (concentration not given with the values); 1.6% of 350,000 active;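 active means significant combined selectivity score with lowered wild-type GFP, culture density cut under 30%, mutant RFP and density less affected; inactive means any of these conditions unmet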; further: one replicate is shown; some compounds called inactive have numbers as strong as hits
Vif A3G: inhibitors of Vif binding to APOBEC3G peptide, primary screen, biochemical, TR-FRET, GST-Vif 1-94, biotin-A3G peptide, dose response retest (AID 1117319). Virion infectivity factor (Human immunodeficiency virus type 1 group M subtype B (isolate …. TR-FRET GST-Vif / biotin-A3G peptide binding; higher % means a stronger effect; test concentration not given here; strong numbers were not always called active. one-dose inhibition, %; IC50 in µM for titrated hits. 0.57% of 260,000 active;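 active means above the screen mean plus three standard deviations and confirmed in dose response; inconclusive means results disagree or hit not tested in dose response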;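 further: Vif residues 1-94 fused to GST binding biotinylated APOBEC3G peptide 110-148; 0% = full assay without inhibitor and 100% = GST in place of GST-Vif; retest series ran down from 100 µM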
Calb FLC: C. albicans growth inhibition with fluconazole, primary screen, CaCi-2 strain, Alamar Blue fluorescence; 0.57% of 300,000 active; growth inhibition, % (no concentration beside the values); C. albicans CaCi-2 (fluconazole-resistant clinical isolate) + fluconazole, 48 h;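 active means most replicates above 75%; inconclusive means exactly half above 75%; inactive means most below 75%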;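 further: all wells also contain fluconazole at 8 µg/ml as a sub-toxic cotreatment; 0% = median of DMSO wells and 100% = median of geldanamycin control wells; wells of about 8 µL received 7.5 nL stock; the first replicate is given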
T cruzi inh: inhibitors of intracellular T. cruzi growth, primary screen, luminescence, NIH3T3 host cells; T. cruzi beta-gal in NIH3T3, 90 h; AID 1885, 2009; inhibition, % (concentration not given with the values); 1.4% of 300,000 active;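 active means mean inhibition across valid replicates above about 55%, limit read from the data; inconclusive means mean below that limit but half or more replicates reach it; inactive means mean below it, under half of replicates reach it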;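 further: signal also drops with host cell toxicity which is not excluded here; 0% = plate median of DMSO wells and 100% = zero luminescence signal; higher percent means less beta-gal luminescence so fewer parasites; stock transfer was 50 nL into about 50 µL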
Bfl-1 A1 inh: caspase 3/7 activation in MEF A1-2A-BIM cells, primary screen, A1 inhibitor project, cell-based, luminescence, HTS | Caspase-Glo 3/7 luminescence, 3 h; percent of clofoctol response, vehicle zero | caspase activation, % (no concentration beside the values) | 0.066% of 330,000 active | AID 2462, 2010;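 active means over half of replicate activation scores above 10%, or exactly half above 10 with the replicate mean above 10; inconclusive means replicate mean below 10 yet half the replicates above 10; inactive means over half of replicates below 10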;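 further: wells of about 30 µL received 50 nL stock; many hits fall short of the cut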
RanGTP-Impb inh: inhibitors of RanGTP-importin-beta interaction, primary screen, biochemical, FRET, CFP-Ran, YFP-importin-beta, homogeneous | Ran GTPase (GTP-bound) - importin-beta complex | cell-free CFP-Ran/YFP-importin-beta FRET ratio | inhibition, % (concentration not given with the values) | 1.1% of 300,000 active | AID 2216, 2009;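 active means most replicates above 15%; inconclusive means exactly half above 15%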;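 further: 0% = DMSO wells and 100% = Ran loaded with GDP instead of GTP; wells of about 40 µL received 100 nL stock; the first replicate is given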
Ecoli rRNA inh OD600: recorded beside Ecoli rRNA inh, whose call it bears; OD600 change, %; measured here: OD600 growth;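 optical density of the mix in the first replicate; 0 = DMSO median and -100 = no signal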
Ecoli rRNA inh RFP: further read-out of Ecoli rRNA inh, marked with its call; RFP signal change, %; measured here: RFP humanized mutant strains;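 first replicate; 0 = DMSO median and -100 = no signal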
Starred values were filed as active, the others as inactive; u = inconclusive; x = no result given.

SMILES	MLL AF4-AF9 inh	Beta cell apopt	Ecoli rRNA inh	Ecoli rRNA inh OD600	Ecoli rRNA inh RFP	Vif A3G	Calb FLC	T cruzi inh	Bfl-1 A1 inh	RanGTP-Impb inh
O=C(Nc1ccccc1F)C1CCN(S(=O)(=O)c2cccnc2)CC1	-0.4	0	6	13	-0.9	4%	4	-22	0.9	3.7
O=C(CN1CCN(c2ccc(O)cc2)CC1)Nc1ccc2c(c1)OCCCO2	-2.6	1	15	10	-0.8	u	x	x	1.7	x
CCOC(=O)C1CCCN(C/C(O)=C(\C#N)c2nc(-c3ccc(Cl)cc3)cs2)C1 (centres undefined)	x	9	x	x	x	6%	-3	-25	-0.1	7.9
Cc1ccc2oc(-c3cccc(NC(=O)c4ccc(Br)o4)c3C)nc2c1	x	4	9	8	0.4	-8%	2	0	0.5	6.1
CCOC(=O)c1c(NC(=O)NC(C)(C)C)sc2c1CCN(C)C2	-4.9	-10	18	5	0.5	0%	2	42	1.8	12
CC(C)(C)Nc1nc(Cl)nc(Nc2ccccc2)n1	-6.1	10	4	1	1.7	x	-4	25	-0.3	7.7
COc1ccc(NC(=O)CN(C)C(=O)c2ccc(NS(=O)(=O)c3ccc4[nH]c(=O)[nH]c4c3)cc2)cc1	-0.6	-5	8	6	-2.4	x	x	-8	-0.7	0.4
Cn1c(-c2ccccc2)cnc1NCc1cc(Cl)ccc1O	13	-2	-18	-17	6.3	x	-17	-7	0.8	1.7
CC(C)S(=O)(=O)c1csc(C(=O)NNC(=O)Nc2ccccc2)c1Cl	-2.3	-1	8	14	1.7	5%	-2	-1	-0.3	-1.8
COc1cccc(C(=O)Nc2nc(-c3ccccc3)c(-c3ccccc3)o2)c1	2.9	1	-31	-37	-6.0	x	-13	12	0.3	-1.5
Cc1[nH]n(-c2ccccc2)c(=O)c1C=Nc1ccc2[nH]c(=O)[nH]c2c1	x	-1	x	x	x	u	-9	-7	0.0	1.7
CCOC(=O)C1CCN(C(=O)c2ccc3c(=O)n4nc(Nc5cc(C)ccc5C)sc4nc3c2)CC1	1.3	16	0	-18	4.7	4%	88*	-14	0.0	-1.0
Cc1ccc(C)c(NC(=O)CCC(=O)OC(C(=O)c2ccccc2)c2ccccc2)c1 (centres undefined)	x	-5	x	x	x	18%	2	-8	0.0	-5.7
COc1cccc(NC(=O)CN(C)C(=O)CCCc2c[nH]c3ccccc23)c1	4.0	0	-13	-29	-4.2	-6%	x	x	0.4	x
CC(=O)c1cccc(NC(=O)C2CCCN(S(=O)(=O)c3ccc(F)cc3)C2)c1 (centres undefined)	x	-2	x	x	x	1%	1	-9	0.3	3.9
Cn1c(=O)cc(SCC(=O)N2CCN(Cc3ccc4c(c3)OCO4)CC2)c2ccccc21	x	-4	x	x	x	-8%	-30	20	-0.1	0.8
CC(=O)c1cccc(NC(=O)Oc2ccccc2)c1	x	5	9	6	-1.5	27%	1	-12	0.2	3.7
O=C(C[N+]1(CC#Cc2ccccc2)CCOCC1)c1ccc(Cl)cc1	9.8	19	-24*	-16*	0.9*	x	13	8	u	-1.1
CCn1ccc(=N)cc1	x	-4	x	x	x	0%	-1	x	1.0	0.3
NC(=S)NNC(=O)Nc1ccc(Cl)c(Cl)c1	x	-10	x	x	x	u	27	-11	0.8	-1.9
COCCOC(=O)c1c(C)nc(SCC(=O)Nc2cccc3ccccc23)c(C#N)c1-c1ccco1	x	17	x	x	x	0%	5	23	1.0	3.4
O=C1CCCN1CCCn1cnc2c([nH]c3ccc(F)cc32)c1=O	-6.9	-2	x	x	x	7%	8	3	-0.6	u
C=C1CCN([C@@H](CC(C)C)C(=O)NCc2ccc(OC)cc2)S(=O)(=O)c2ccccc21	2.1	4	-7	-21	-19	x	-6	0	0.2	-1.2
Oc1c(Br)cc(Br)cc1CNn1cnnc1	-1.7	4	4	5	-1.4	x	56	6	-0.6	4.8
COc1ccc(NC(=O)C(c2ccccc2)N2CCN(c3ccccn3)CC2)cc1Cl (centres undefined)	2.3	7	0	-9	-0.2	2%	15	18	0.2	0.8
(continued)
SMILES	MLL AF4-AF9 inh	Beta cell apopt	Ecoli rRNA inh	Ecoli rRNA inh OD600	Ecoli rRNA inh RFP	Vif A3G	Calb FLC	T cruzi inh	Bfl-1 A1 inh	RanGTP-Impb inh
COC(=O)c1ccc(CSc2nc3ccccc3o2)cc1	x	-2	x	x	x	-6%	28	-1	-9.1	1.2
Cc1cccc(CN2CCCC(C(=O)c3ccc4c5c(cccc35)CC4)C2)n1 (centres undefined)	8.1	10	-55	-72	-27	1%	-2	43	-0.3	-4.0
CC(NCc1ccccc1O)C12CC3CC(CC(C3)C1)C2 (centres undefined)	1.6	-8	6	-4	3.8	4%	-21	16	0.5	4.1
Cc1cc(C)n2nc(SCC(=O)N3CCC(C(=O)O)CC3)nc2n1	-0.3	2	x	x	x	0%	x	x	-0.5	x
Cc1ccc2c(c1)N(CC(=O)N1CCCc3ccccc31)C(=O)CO2	2.6	-1	21	12	-3.2	1%	25	1	0.4	-1.2
NC(=O)C1CCN(C(=O)Cc2ccc(-c3ccccc3)cc2)CC1	0.9	-7	-7	-15	-2.2	x	5	-7	0.6	2.2
CN(C)N1C(N)=C(C#N)C(c2ccccc2Cl)C2=C1CCCC2=O (centres undefined)	-1.1	-7	4	5	1.9	-5%	-2	16	-0.2	-3.6
CCOc1cc(/C=C2/NC(=O)N(CC(=O)Nc3cccc(C)c3)C2=O)ccc1OCC(N)=O	-2.8	4	17	18	-1.2	4%	12	-8	-0.2	2.6
Cc1ccnc(NC(=O)c2ccc(COc3c(F)c(F)cc(F)c3F)o2)c1	1.3	1	3	-1	-0.5	2%	-1	3	1.0	0.2
CN(C)c1cccc2c1c(NC(=O)c1ccc(Cl)cc1)nn2C	-2.9	1	-11	-1	-1.9	-5%	5	22	0.6	10
COc1ccc(CN(C)Cc2cc(=O)n3ccsc3n2)c(OC)c1OC	0.0	-2	14	13	3.0	-2%	0	-1	-0.5	-0.2
CCOC(=O)c1c(N2C(=O)C3C4C=CC(O4)C3C2=O)sc2c1CCCC2 (centres undefined)	x	-7	x	x	x	22%	14	-20	0.7	-1.8
CC(C)n1cnnc1SCC(=O)NC(=O)c1ccccc1	1.1	-4	7	24	-1.7	-4%	8	-8	0.8	u
Fc1ccc(COc2ccc(Br)cc2CNCc2ccncc2)cc1	x	0	x	x	x	8%	18	71*	1.9	-0.9
CS(=O)(=O)N(CC(=O)NC1CCCC1)Cc1ccc(F)cc1	-1.3	3	10	12	-3.5	-9%	1	-3	0.5	-2.5
O=C(/C=C/c1ccc2c(c1)OCO2)NCc1ccc(F)cc1	-4.3	0	x	x	x	4%	-15	-5	0.0	2.4
CCc1cc2c(=O)n(-c3ccccc3)cnc2s1	x	-2	x	x	x	0%	17	-8	-1.5	u
COc1cccc(C2c3c(-c4ccccc4)n[nH]c3C(=O)N2c2ccc(C(=O)O)cc2)c1 (centres undefined)	x	1	-10	-5	3.8	4%	-3	-9	0.3	u
Cc1ccc(S(=O)(=O)NCC(=O)N2CCc3ccccc3C2)cc1	-5.4	-5	5	-2	3.5	x	-17	-6	0.1	u
CCOC(=O)c1nn(-c2ccccc2)c(=O)cc1OCC(=O)Nc1cc(C)ccc1C	1.1	-2	12	2	1.5	-1%	-13	2	-0.8	-1.4
CC1=C([N+](=O)[O-])C(c2cccc(Br)c2)C2=C(N1)c1ccccc1C2=O (centres undefined)	x	37	x	x	x	8%	36	u	0.8	-0.7
CC(=O)C1=C(O)C(=O)N(CCCO)C1c1ccccc1 (centres undefined)	-0.4	-3	9	9	1.0	-2%	-12	-19	1.4	-1.4
COc1ccc(CCN2C(=NC(C)=O)SC3CS(=O)(=O)CC32)cc1OC (centres undefined)	4.2	-3	11	6	-1.3	7%	5	-22	1.1	-1.3
COc1cccc(C2c3[nH]c4ccccc4c3C[C@H]3C(=O)N(CCCOC(C)C)CC(=O)N23)c1 (some centres undefined)	-1.7	-4	15	17	-1.6	-1%	0	7	2.1	-5.1
O=C(NCCN1CCN(Cc2ccccc2)CC1)C1c2ccccc2C(=O)N2CCc3ccccc3C12 (centres undefined)	x	-1	0	4	-1.8	-10%	-5	5	1.6	2.7
Other entries:
SMILES	MLL AF4-AF9 inh	Beta cell apopt	Ecoli rRNA inh	Ecoli rRNA inh OD600	Ecoli rRNA inh RFP	Vif A3G	Calb FLC	T cruzi inh	Bfl-1 A1 inh	RanGTP-Impb inh
O=C(Cc1ccccc1F)Nc1cc(S(=O)(=O)N2CCOCC2)ccc1N1CCCC1	5.5	-6	-9	-2	1.6	x	x	x	-2.1	x
O=C1C2CCCN2C(=O)N1CCCCN1CCN(c2ccccc2)CC1 (centres undefined)	x	-2	x	x	x	u	3	-11	0.4	2.4
CCNC(=O)C(=O)Nc1cc2c3c(c1)CCC(=O)N3CCC2	-0.3	2	0	1	-3.4	-3%	5	-16	0.6	4.6
CCOC(=O)C1CCN(C(=O)Nc2ccc(Cl)cc2)CC1	x	0	x	x	x	-3%	-2	-3	0.2	1.7
Clc1nc(NCCN2CCOCC2)nc(NCc2ccccc2)n1	-0.3	-10	x	x	x	1%	-23	-14	-0.4	0.0
O=C(O)c1ccc(-c2nc(-c3ccc(Cl)c(Cl)c3)cs2)cc1	x	1	x	x	x	-11%	89*	1	-9.0	x
COc1ccc2c(C)c(C)c(=O)oc2c1OC	-0.2	0	-5	-5	-1.8	-5%	-1	48	0.8	-0.8
COc1ccccc1NC(=O)c1c(C)nn(-c2ccccc2)c1Cl	4.4	-5	-36*	-27*	-3.4*	x	51	1	1.0	-3.2
O=C(NCC1CCCO1)c1cccc(Oc2ccccc2)c1 (centres undefined)	-1.3	x	-18	-22	-1.7	x	0	1	0.7	-0.4
COCCSc1nnc(NC(=O)C2CC(=O)N(c3ccccc3)C2)s1 (centres undefined)	-3.0	-1	-16	-9	-3.0	-3%	15	-14	0.3	2.8
O=C(Nc1cc(=O)[nH]c(=O)[nH]1)c1cc(Cl)ccc1Cl	0.8	19	4	5	-3.6	x	-12	-40	-1.7	3.2
C=CCNCCCCOc1c(Cl)cc(C)cc1Br	x	-12	x	x	x	-4%	-43	12	0.8	-2.9
CCCC1=Nc2cc(C(=O)N3CCC(C(N)=O)CC3)ccc2Sc2ccccc21	7.0	-8	1	-5	1.2	x	-3	-4	1.0	2.5

The list is partial; count on the stated rates, not on these rows.
